# GIRK2 act: activators of human GIRK2 potassium channels. hit rate 0.05% among 63,000. HEK293-GIRK2 thallium flux, Thallos fluorescence. calls only for hits at 25 µM. G protein-activated inward rectifier potassium channel 2 (Homo sapiens), P48051;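 active means among the strongest 0.2% of first-round signals and kept after retests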;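 further: first round at about 10 µM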
# Target sequence (P48051 whole entry, looked up): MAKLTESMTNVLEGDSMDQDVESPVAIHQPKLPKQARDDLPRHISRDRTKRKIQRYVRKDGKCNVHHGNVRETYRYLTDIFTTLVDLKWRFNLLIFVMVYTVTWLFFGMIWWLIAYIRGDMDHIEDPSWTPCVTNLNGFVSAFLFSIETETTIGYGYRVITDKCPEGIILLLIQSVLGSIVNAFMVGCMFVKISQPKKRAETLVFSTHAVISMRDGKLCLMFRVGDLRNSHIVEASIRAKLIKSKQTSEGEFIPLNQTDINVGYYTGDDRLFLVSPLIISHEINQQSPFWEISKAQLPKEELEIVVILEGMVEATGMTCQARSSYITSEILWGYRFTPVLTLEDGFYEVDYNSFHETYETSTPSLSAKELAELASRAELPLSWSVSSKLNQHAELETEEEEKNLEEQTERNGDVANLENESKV
# Calls only; i = inactive. Not all compounds are listed. The share of hits here may be higher or lower than overall.
GIRK2 act,Structure
i,COc1cccc(/C=N\Nc2ncnc3c2cnn3-c2cccc(OC)c2)c1
i,COc1ccc(NC(=O)Cn2cccc(-c3nc(-c4ccc(OC)c(OC)c4)no3)c2=O)cc1OC
i,O=c1c2ccccc2nc(SCc2nc(-c3cccs3)no2)n1Cc1cccs1
i,COc1ccc(-c2nn3c(NC(C)C)cc(C)nc3c2C)cc1OC
i,COc1ccc(-c2nnc3c4cnn(-c5ccc(C)c(C)c5)c4ncn23)cc1
i,O=C(CCS(=O)(=O)Cc1ccccc1)Nc1ccc2c(c1)OCO2
i,N#CC1=CN(c2ccc(Cl)c(Cl)c2)c2ccccc2S1(=O)=O
i,CCc1ccccc1NC(=O)C(=O)NCCc1ccc(S(N)(=O)=O)cc1
i,COc1ccccc1Oc1coc2c3c(ccc2c1=O)OCN(Cc1ccncc1)C3
i,COc1ccc(-c2cc3c(=O)n(CC(=O)Nc4c(C)cc(C)cc4C)ccn3n2)cc1OC
i,O=C(Cc1ccccc1)Nc1oc2ccccc2c(=O)c1-c1ccc2c(c1)OCO2
i,O=C1OC2CC1N(C(=O)c1cc(=O)c3ccccc3o1)C2 (centres undefined)
i,COCCCNC(=O)Cn1ccn2nc(-c3ccc(Cl)cc3)cc2c1=O
i,Cc1ccc(-n2cc[nH]c(=S)c2=O)cc1
i,C=C(C)COc1ccc2c(=O)c(Oc3ccccc3OC)coc2c1
i,COc1cccc(N2C(=O)N(c3ccc([N+](=O)[O-])cc3)C3CS(=O)(=O)CC32)c1 (centres undefined)
i,O=C(NCCOc1cc(N2CCOCC2)ncn1)c1cccs1
i,CC(O)CC1CCC(C(C)C(=O)OC(C)CC2CCC(C(C)C(=O)O)O2)O1 (centres undefined)
i,CCc1ccc(C(=O)c2cn(CC(=O)Nc3ccc4c(c3)OCCO4)c3ccc(Cl)cc3c2=O)cc1
i,O=C(C1=COCCO1)N(CCn1cccn1)c1nc2c(Cl)cccc2s1
i,CC(Cn1nc(-c2ccco2)ccc1=O)C(=O)Nc1ccc(S(=O)(=O)Nc2nccs2)cc1 (centres undefined)
i,CSCC(C)(O)CNS(=O)(=O)c1cc(Cl)ccc1C (centres undefined)
i,COCCN(Cc1ccoc1)C(=O)c1ccc(C(=O)OC)cc1
i,O=C(NCC#CCN1CCOCC1)NCc1ccccc1
i,Cc1cc(NC(=O)c2ccc(Cl)s2)n(-c2nc3ccccc3s2)n1
i,O=C(NCc1cccc(Cl)c1)c1ccc(Cn2c(=S)[nH]c3cc4c(cc3c2=O)OCO4)cc1
i,COc1ccc(-n2nnc(C(=O)Nc3cc(C)ccc3C)c2C2CC2)cc1
i,O=C(C1Nc2ccccc2S(=O)(=O)N1)N1CCN(c2ccccc2)CC1 (centres undefined)
i,COc1ccc(Br)c(C(=O)N2CCN(CC(C)O)CC2)c1 (centres undefined)
i,COC(=O)c1sccc1S(=O)(=O)N1CCC(CSCc2ccco2)CC1
i,NC(=O)CCc1cccc(Oc2ccc(F)cc2)c1
i,OCc1nc2ccccc2n1CCCc1ccccc1
i,O=C(NCC1CCN(C(=O)c2ccoc2)CC1)C(=O)Nc1cc2c3c(c1)CCC(=O)N3CCC2
i,Cc1cc(C)n(CC(=O)NCc2ccccc2)c(=O)c1-c1nc(-c2ccccc2)no1
i,O=C(c1cc(C2CC2)on1)N1CCOC(c2cc(Cl)cc(Cl)c2)C1 (centres undefined)
i,CCN(CC)CCNc1nc2c(c(=O)n(Cc3ccc(Cl)cc3)c(=O)n2C)n1C
i,Cc1c(C(=O)Nc2ccccc2-c2ccc(=O)[nH]n2)sc2nc(-c3ccc(F)cc3)cn12
i,NC(=O)CSc1nnc(N2CCN(C(=O)c3ccccc3Cl)CC2)s1
i,CC(C)Sc1ccc(CC(=O)N2CCc3nc(NC(=O)c4ccoc4)sc3C2)cc1
i,O=C(NCc1ccco1)C1(c2cccs2)CCCC1
i,COCC(=O)NCCc1csc(-n2nc(C)cc2C)n1
i,Cn1nc(-c2ccc(F)cc2)cc1C(=O)NCCc1nc(C2CC2)cc(C(F)(F)F)n1
i,Cc1noc(C)c1CN1CCN(C(=O)C2(c3cccs3)CCCC2)CC1
i,O=C(Cn1nc2ccc(Sc3cccc(F)c3)nn2c1=O)NCc1ccc(C(F)(F)F)cc1
i,CCSc1nnc(NC(=O)CN2CC(c3nc(C)no3)C2)s1
i,COc1ccc(-c2noc(CN3CCCC(NC(=O)Nc4cccc(C)c4)C3)n2)cc1F (centres undefined)
i,O=C(NCc1n[nH]c(=O)c2ccccc12)c1cccc([N+](=O)[O-])c1
i,COc1cccc2cc(C(=O)NCCn3nc(-c4ccco4)ccc3=O)oc12
i,C=CCn1c(SCC(=O)Nc2ccc3c(c2)OCO3)nc2nc(N3CCCCC3)sc2c1=O
i,N#C/C(=C\c1ccc(O)cc1)c1nc2ccccc2o1

# Later entries:
GIRK2 act,Structure
i,COc1cc2c(cc1OC)CN(C(=O)CCc1c(C)noc1C)CC2
i,CCOc1cc(C(=O)Nc2ccc(Cl)c3ncsc23)cc(OCC)c1OCC
i,O=S(=O)(Cc1ccccc1)NCCOc1ccc2c(c1)OCO2
i,Cn1c(=O)c(C(=O)Nc2ccc(Br)cc2F)cc2cccnc21
i,COc1cccc(COc2coc(C(=O)NC3CCN(Cc4ccccc4)CC3)cc2=O)c1
i,COc1cccc2sc(N3CC(C(=O)NCc4ccccc4F)C3)nc12
i,O=C(CSc1cc(N2CCCCC2)ncn1)Nc1ccc(Cl)cc1Cl
i,CC(=O)Nc1ccc(SCCCC(=O)Nc2ccc(C(F)(F)F)cc2)nn1
i,Cc1ccc(/C=N\NC(=O)Cn2c(Nc3cccc(C)c3)nc3c2c(=O)n(C)c(=O)n3C)cc1
i,COc1cc(/C=C/C(=O)Nc2cc(N3CCCCC3)ncn2)cc(OC)c1OC
i,COc1ccc(-c2noc(C3CC(=O)N(c4ccc5c(c4)OCO5)C3)n2)c(OC)c1 (centres undefined)
i,COc1ccccc1NC(=O)CCc1ccc(-c2ccc(C)cc2)o1
i,O=C(NCC#CCN1CCc2ccccc2C1)c1ccc(Cn2ccnc2)cc1
i,COc1cc(NC(=O)N2CC(Oc3nc4c(Cl)cccc4s3)C2)cc(OC)c1OC
i,COc1ccc(CSc2ncn[nH]2)cc1
i,COc1cccc(/C=C2\Oc3cc(OC(=O)C(C)C)ccc3C2=O)c1OC
i,O=C(Nc1ccc2c(c1)OCO2)N1CCC(N2CCCC2=O)CC1
i,COc1ccc(-c2ccc(=O)n(CCNS(=O)(=O)c3ccc(F)c(C)c3)n2)cc1
i,COc1cccc2cc(C(=O)N3CC(c4nc(-c5cccs5)no4)C3)oc12
i,Cc1nc2sc(C)c(C)n2c(=O)c1NC(=O)CCCc1ccccc1
i,COc1cccc(C(=O)Nc2c3c(nn2CC(=O)NCc2ccco2)CSC3)c1
i,CC(=O)Nc1ccc(N/C=C(\C#N)c2nc(-c3ccco3)cs2)cc1
i,Cc1cccc(NC(=O)c2c(O)c3cnn(Cc4ccccc4)c3[nH]c2=O)c1C
i,COc1ccc(-n2nc(-c3nc(-c4ccncc4)no3)c3ccccc3c2=O)cc1
i,O=C(CCS(=O)(=O)c1ccccc1)N1CCC2(CC1)OCCS2
i,CCSc1nn(CC(=O)Nc2cc(Cl)ccc2C)c(N)c1S(=O)(=O)c1ccc(OC)cc1
i,Cc1onc(-c2c(Cl)cccc2Cl)c1C(=O)N[C@@H]1C(=O)N2[C@@H]1SC(C)(C)[C@@H]2C(=O)O
i,COc1ccc2oc(=O)c(C(=O)Nc3c(C)cccc3C)cc2c1
i,Cc1[nH]c(=O)n(C)c(=O)c1CCc1nnc(SCc2ccc(Cl)cc2)o1
i,Cc1cc(C)cc(Nc2nc(C)cc3nn(CC(=O)Nc4ccccc4F)c(=O)n23)c1
i,Cc1ccc(Cl)cc1NC(=O)CSc1cc(N2CCC(C(=O)NC3CC3)CC2)ncn1
i,Cc1ccc(N2CCCC(C(=O)Nc3nc4ccc(Cl)cc4s3)C2)nn1 (centres undefined)
i,O=S(=O)(NCc1ccc2c(c1)OCO2)c1cccc(C(F)(F)F)c1
i,CCOC(=O)c1cccc(NC(=O)Cn2cnc3c(sc4ccccc43)c2=O)c1
i,O=C(/C=C/c1ccccc1Cl)N1CCN(c2ccc(-c3noc(C(F)(F)F)n3)cn2)CC1
i,CCc1noc(-c2ccnc(SCC(=O)Nc3c(C)cc(C)cc3C)c2)n1
i,O=C(NCC1CCS(=O)(=O)C1)c1cc(Cl)ccn1 (centres undefined)
i,COc1ccc(N2CCN(C(CNS(=O)(=O)c3ccc(OC)cc3)c3cccnc3)CC2)cc1 (centres undefined)
i,CCOc1ccccc1NC(=O)c1ccc(-n2cnnn2)cc1
i,O=C(NCCc1ccccc1)N1CCC(Cn2ccc3cccnc32)CC1
i,COc1cc(OC)c(OC)cc1/C=C1\Oc2c(ccc3c2CN(Cc2ccccn2)CO3)C1=O
i,COc1ccc(CNC(=O)C2CCN(c3cc(Oc4ccccc4)ncn3)CC2)cc1
i,O=C(CC(c1ccccc1)c1ccccc1)Nc1cc(C2CC2)nn1-c1nc2c(c(=O)[nH]1)CCCC2
i,CN(C)S(=O)(=O)c1ccc(C(=O)N(Cc2cccs2)Cc2cccn2C)cc1
i,COc1ccc(CNC(=O)N2CCC(c3nnc(C4CC4)s3)CC2)cc1
i,Cc1cc(NC(=O)C(C)C)n(-c2nc3c(cnn3-c3cccc(Cl)c3)c(=O)[nH]2)n1
i,COc1ccc(/C=C2\Oc3c(ccc(OC(=O)N4CCOCC4)c3C)C2=O)c(OC)c1
i,Cc1ccc(C(=O)NC(=S)Nc2ccc(N3CCOCC3)cc2)cc1
i,O=C(Nc1ccc(S(=O)(=O)c2ccccc2)cc1)c1cccc(S(=O)(=O)N2CCCCC2)c1
i,CCOc1ccc(S(=O)(=O)NCC(c2cn(C)c3ccccc23)N(C)C)cc1F (centres undefined)

# More results
GIRK2 act,Structure
i,Cc1nn(-c2ncc(NC(=O)c3cccc4ccccc34)cn2)c(C)c1C
i,CNC(=O)CSc1cnn(CC(=O)Nc2cccc(Cl)c2C)c(=O)c1Cl
i,CC(=O)NC(C)C(=O)Nc1ccccc1NC(=O)c1ccccc1C(F)(F)F (centres undefined)
i,COCCN1CCC(NC(=O)C(C)Oc2ccccc2)CC1 (centres undefined)
i,COCCNC(=O)COc1ccc(-n2cccn2)nn1
i,O=c1n(CCOc2ccc(F)cc2)nc2c(S(=O)(=O)N3CCCCC3)cccn12
i,O=C(Nc1cccc(Cl)c1)c1cn(Cc2ccc(NC(=O)c3ccccc3F)cc2)cn1
i,CCCCc1ccc(-n2c(-c3ccccc3)cn3c4c(=O)n(CC(N)=O)c(=O)n(C)c4nc23)cc1
i,C=CCNC(=O)C(=O)NCC1OCCCN1S(=O)(=O)c1ccc(OC)c(OC)c1 (centres undefined)
i,COc1ccccc1N1CCN(C(=O)c2ccc(-n3nc(C)cc3C)nn2)CC1
i,O=C(Nc1cc(OCc2ccc3c(c2)OCO3)ncn1)c1ccncc1
i,COc1ccccc1NC(=O)C1=C(C)Nc2ncnn2C1/C=C/c1ccccc1 (centres undefined)
i,COc1ccc(-c2cn[nH]c2-c2ccc(OCCN3CCOCC3)c(C)c2O)cc1
i,COc1ccccc1-c1coc2cc(OS(C)(=O)=O)ccc2c1=O
i,Cc1cc(C(O)CCNC(=O)c2ccc3nsnc3c2)c(C)o1 (centres undefined)
i,Cc1noc(C)c1S(=O)(=O)NCC1(O)CCOc2ccccc21 (centres undefined)
i,COc1ccc(-n2ccn(CC(=O)Nc3ccc(C)cc3)c(=O)c2=O)cc1
i,CCOc1ccc(C(=O)CSc2nc3cc(C(=O)NCC(C)C)ccc3c(=O)n2CCOC)cc1
i,CC[C@H](C)/C=C(C)/C=C/C(=O)Cc1cc(O)c(C)c(O)c1C=O
i,Cc1ccc(S(=O)(=O)N(Cc2cccc(C(F)(F)F)c2)C(=O)N2CCN(C)CC2)cc1
i,CCOC(=O)c1c(NC(=O)CCl)sc2c1CCC(C)C2 (centres undefined)
i,O=C(c1cc2ccccc2[nH]1)N1CCN(c2nc3c(C(F)(F)F)cccc3s2)CC1
i,O=C(NCCc1ccoc1)Nc1ccccc1C(F)(F)F
i,O=C(Nc1c(C(=O)N2CCN(c3ccccn3)CC2)[nH]c2ccc(F)cc12)c1ccccc1
i,Cc1ccc(S(=O)(=O)N(CCc2cccs2)C2CC2)cc1C
i,Cc1ccc(-n2ncc3c(C)nnc(SCC(=O)N4CCc5ccccc54)c32)cc1C
i,OC(/C=C/[C@H]1C(O)CC2OC(O)CC21)COc1cccc(C(F)(F)F)c1 (some centres undefined)

# Compounds shown so far containing a furan ring, fused or not, in the order listed:
GIRK2 act,Structure
i,CC(Cn1nc(-c2ccco2)ccc1=O)C(=O)Nc1ccc(S(=O)(=O)Nc2nccs2)cc1 (centres undefined)
i,COCCN(Cc1ccoc1)C(=O)c1ccc(C(=O)OC)cc1
i,COC(=O)c1sccc1S(=O)(=O)N1CCC(CSCc2ccco2)CC1
i,O=C(NCC1CCN(C(=O)c2ccoc2)CC1)C(=O)Nc1cc2c3c(c1)CCC(=O)N3CCC2
i,CC(C)Sc1ccc(CC(=O)N2CCc3nc(NC(=O)c4ccoc4)sc3C2)cc1
i,O=C(NCc1ccco1)C1(c2cccs2)CCCC1
i,COc1cccc2cc(C(=O)NCCn3nc(-c4ccco4)ccc3=O)oc12
i,COc1ccccc1NC(=O)CCc1ccc(-c2ccc(C)cc2)o1
i,COc1cccc2cc(C(=O)N3CC(c4nc(-c5cccs5)no4)C3)oc12
i,COc1cccc(C(=O)Nc2c3c(nn2CC(=O)NCc2ccco2)CSC3)c1
i,CC(=O)Nc1ccc(N/C=C(\C#N)c2nc(-c3ccco3)cs2)cc1
i,Cc1cc(C(O)CCNC(=O)c2ccc3nsnc3c2)c(C)o1 (centres undefined)
i,O=C(NCCc1ccoc1)Nc1ccccc1C(F)(F)F

# Assay outcomes (PubChem)
